# Source: PubChem BioAssay (Johns Hopkins Ion Channel Center)
# KCNQ2 pot: potentiators of rat KCNQ2 potassium channel; CHO-K1 KCNQ2, FluxOR thallium flux fluorescence; active compounds read high; AID 2239, 2010; B-score at 10 µM; Potassium voltage-gated channel subfamily KQT member 2 (Rattus norvegicus), O88943; 310,000 tested, 0.54% active;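 active = fluorescence ratio B-score at least 3 SD of library B-scores, with initial fluorescence B-score within 3 SD, cut at about 5.3 in these data; same plate scores as AID 2156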;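 also: B-score of peak minus minimum over baseline fluorescence ratio after K+ and Tl+ stimulus; positive B-score means potentiation of KCNQ2 with more thallium influx and brighter signal; only the inactives scoring about 0 or higher are listed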
# Target sequence (O88943 whole entry, looked up): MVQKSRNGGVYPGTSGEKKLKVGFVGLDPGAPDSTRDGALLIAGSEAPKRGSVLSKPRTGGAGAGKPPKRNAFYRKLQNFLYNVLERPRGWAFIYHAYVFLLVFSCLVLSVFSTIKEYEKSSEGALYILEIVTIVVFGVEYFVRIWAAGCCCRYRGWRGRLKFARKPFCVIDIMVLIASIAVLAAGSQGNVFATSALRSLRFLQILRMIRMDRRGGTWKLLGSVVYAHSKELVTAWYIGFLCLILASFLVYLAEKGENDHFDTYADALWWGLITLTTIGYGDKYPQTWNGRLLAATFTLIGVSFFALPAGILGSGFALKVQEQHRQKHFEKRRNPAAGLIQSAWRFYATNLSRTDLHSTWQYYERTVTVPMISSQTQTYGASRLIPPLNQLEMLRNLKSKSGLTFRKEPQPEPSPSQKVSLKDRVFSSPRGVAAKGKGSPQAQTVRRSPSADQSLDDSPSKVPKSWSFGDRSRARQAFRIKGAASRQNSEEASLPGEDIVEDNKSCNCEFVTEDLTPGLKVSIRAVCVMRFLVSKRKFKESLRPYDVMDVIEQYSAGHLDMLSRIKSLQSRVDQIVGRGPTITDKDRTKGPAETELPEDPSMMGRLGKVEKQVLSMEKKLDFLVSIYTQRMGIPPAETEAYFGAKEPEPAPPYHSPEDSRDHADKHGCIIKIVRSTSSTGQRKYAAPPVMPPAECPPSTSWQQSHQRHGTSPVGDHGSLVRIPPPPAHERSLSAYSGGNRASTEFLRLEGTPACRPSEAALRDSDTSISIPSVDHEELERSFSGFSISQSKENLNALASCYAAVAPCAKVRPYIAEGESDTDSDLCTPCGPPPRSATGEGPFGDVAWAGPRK
# KCNQ2 pot baseline: also measured in KCNQ2 pot; calls as there; B-score; compound at 10 µM; measured here: initial fluorescence intensity artifact check;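 brightness before thallium and not channel activity; 0 = typical well and far values either way flag optical interference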
# An asterisk follows results filed as active. Not all compounds are listed; rates above refer to the full screens.
SMILES,KCNQ2 pot,KCNQ2 pot baseline
Cc1ccccc1NC(=S)NC(NC(=O)C(C)(C)C)C(Cl)(Cl)Cl (stereo not given),0.99,-0.5
COc1ccc2oc(-c3ccc(C)c(NC(=O)c4ccc(N5CCOCC5)c([N+](=O)[O-])c4)c3)nc2c1,1.9,-1.7
COC(=O)CCc1n[nH]c(=O)[nH]c1=O,0.77,-0.24
O=C(CCl)Nc1cccc(S(=O)(=O)N2CCCCCC2)c1,0.02,-1.1
Cc1csc(SC(C)C(=O)NCc2ccc3c(c2)OCO3)n1 (stereo not given),0.11,-0.66
Cc1cccc[n+]1CC(=O)c1ccc(NC(=O)c2ccccc2)cc1,2.7,-1.4
CCOC(=O)NN1C(=O)c2ccccc2NC1c1cccs1 (stereo not given),0.04,-0.04
Cc1csc(NC(=O)CSc2nc(=O)n(CCN(C)C)c3c2CCCC3)n1,0.88,-0.56
COCCNC(=O)/C(C#N)=C1\N=C(NC(=O)c2cccs2)c2ccccc21,0.6,-0.74
CC(C(=O)Nc1ccccc1C(=O)N1CCCC1)n1nnc2ccccc21 (stereo not given),0.87,-0.46

# Brought forward from above: 5 compounds, followed by the next part.
SMILES,KCNQ2 pot,KCNQ2 pot baseline
Cc1cccc[n+]1CC(=O)c1ccc(NC(=O)c2ccccc2)cc1,2.7,-1.4
CCOC(=O)NN1C(=O)c2ccccc2NC1c1cccs1 (stereo not given),0.04,-0.04
Cc1csc(NC(=O)CSc2nc(=O)n(CCN(C)C)c3c2CCCC3)n1,0.88,-0.56
COCCNC(=O)/C(C#N)=C1\N=C(NC(=O)c2cccs2)c2ccccc21,0.6,-0.74
CC(C(=O)Nc1ccccc1C(=O)N1CCCC1)n1nnc2ccccc21 (stereo not given),0.87,-0.46
COc1cccc(Cn2c(Oc3ccccc3)nc3c2c(=O)n(C)c(=O)n3C)c1,1.1,0.03
C=CCn1c(SCC(=O)CC(=O)OCC)nc2cc(C(=O)N3CCC(C(N)=O)CC3)ccc2c1=O,0.41,0.75
CCCOc1ccc(N2C(=O)CC(N(O)c3ccccc3)C2=O)cc1 (stereo not given),1.3,0.39
Cn1c(SCc2nc3ccccc3c(=O)[nH]2)nnc1-c1ccco1,0.8,-1.6
CCCn1c(=O)[nH]c2ccccc21,0.31,-1.2
CCOc1ccc(NC(=O)COn2nnc3ccc(S(=O)(=O)N4CCOCC4)cc32)cc1,0.21,-0.05
C#CCOCCOCCOCCNc1nc(N2CCN(C(=O)C(Cc3cc4ccccc4[nH]3)n3cc(C(N)Cc4ccc(O)cc4)nn3)CC2)nc(N2CCN(C(=O)C(Cc3cc4ccccc4[nH]3)n3cc(C(N)Cc4ccc(O)cc4)nn3)CC2)n1 (stereo not given),0.63,1.5
C=CCNC(=S)N1CCN(c2ncc3c(=O)c(C(=O)O)cn(CC)c3n2)CC1,0.17,0.25
CCCn1c(SCC(=O)NCc2ccc(C)cc2)n[nH]c1=O,3,0.06
Cc1c(O)cc2c(c1O)C(=O)CC(c1ccc(O)cc1)O2 (stereo not given),2.3,-1.1
Cc1cc2c(=O)oc(-c3ccc(Br)cc3)nc2s1,0.41,1
CC1(C(=O)Nc2nc3ccccc3s2)CC1(Br)Br (stereo not given),1.4,-2.2
O=C(COC(=O)c1ccc(Cl)nc1)Nc1nnc(-c2ccccc2)o1,1.8,1.1
Cc1nn(Cc2ccccc2Cl)c(C)c1NC(=O)CCCn1nc(C)c([N+](=O)[O-])c1C,0.7,0.1
Cc1ccccc1NC(=O)Cn1nc(C(F)(F)F)cc1C1CC1,0.26,-0.01
O=C(CN(C(=O)c1csnn1)c1ccc(F)c(Cl)c1)NCc1ccc2c(c1)OCO2,0.49,1.4
O=C1c2ccccc2-c2nnc(-c3ccccc3)cc21,0.71,-0.35
CCCNC(=O)COC(=O)c1cc(SC)ccc1Cl,1.3,0.49
Cn1c(CNC(=O)CNC(=O)c2cccc(F)c2)cc(=O)n(C)c1=O,1,0.41
COc1ccccc1NS(=O)(=O)c1cc(NC(=O)CCNC(C)=O)ccc1N1CCCCC1,1.9,0.03
COCCCN1CC23C=CC(O2)C(C(=O)OC)C3C1=O (stereo not given),0.28,0.8
Cc1cc(C)nc(SCC(=O)OCC(=O)Nc2ccccc2)n1,1.3,0
COc1ccc(NC(=O)COC(=O)C23CCC(=O)N2c2ccccc2S3)cc1 (stereo not given),1.9,-2.6
CCN(CC)c1ccc(/C=N/N2C(=O)c3ccccc3C2=O)cc1,1.7,-0.99
CCC(=O)Nc1ccc(Cl)c(-c2nc3ncccc3o2)c1,0.17,-0.07
CCC1(c2ccc(F)cc2)NC(=O)N(CC(=O)NCc2ccc(F)cc2)C1=O (stereo not given),1.9,-0.83
O=C(CCN=C1NS(=O)(=O)c2ccccc21)OCC(=O)c1ccc(F)cc1,1.3,-1.2
CCc1ccc(CCC(=O)Nc2ccc(C)cc2C)o1,6*,-1.4*
CCN(CC)c1ccc(C=O)c(OC)c1,0.83,-0.75
CCOC(=O)NCN1C(=O)C2C3C=CC(C3)C2C1=O (stereo not given),0.39,0.98

# A different layout for 2 compounds above.
# Every second line gives: KCNQ2 pot, KCNQ2 pot baseline
Cc1cc(C)nc(SCC(=O)OCC(=O)Nc2ccccc2)n1
→ 1.3, 0
O=C(CCN=C1NS(=O)(=O)c2ccccc21)OCC(=O)c1ccc(F)cc1
→ 1.3, -1.2

# Next structures:
SMILES,KCNQ2 pot,KCNQ2 pot baseline
CC(/C=C/c1ccc(Cl)o1)=C\C(=O)O,0.33,0.1
CC(C)(O)C(=O)NNC(=S)NCc1ccco1,2.3,1.7
Cc1ccccc1N(C(=O)CCC(=O)Nc1ccccn1)C(C(=O)NC(C)C)c1ccc(F)cc1 (stereo not given),1.8,0.89
CCOc1ccc(/C=N/OC(C)C(=O)NCc2ccc3c(c2)OCO3)cc1 (stereo not given),3.6,2
O=C(O)C1=C[C@H](c2csc3ccccc23)C[C@H](OCc2ccc(CO)cc2)O1,0.68,-0.75
CC1(C)CC(NC(=O)c2ccccc2F)CC(C)(C)N1,0.4,-0.05
Cc1cc(C)c(OCC(=O)N(C)CC(=O)Nc2ccc(N3CCOCC3)cc2)c(C)c1,0.48,-1.1
[O-]/C(=C(\C(=S)NCc1ccco1)[n+]1ccccc1)c1ccccc1Br,0.31,0.23
COc1cccc(NC(=O)C(C)N2C(=O)c3ccccc3C2=O)c1 (stereo not given),1.1,0.33
N#Cc1cc(-c2cccc(Cl)c2)c[nH]c1=O,2.2,-0.29
COc1ccc(OC)c(-c2c[n+](=O)c3c(n2[O-])CCCC3)c1,0.14,-0.25
Cc1ccc2ncccc2c1NC(=S)NC(=O)c1ccccc1,0.49,-1
O=C(CSc1nc2c(sc3ccccc32)c(=O)n1CCO)NCc1ccco1,0.82,-0.08
O=C(NCCc1c[nH]c2ccccc12)C(=O)NCC(c1ccco1)N1CCN(c2ccccc2F)CC1 (stereo not given),0.88,-1.7
COc1ccc(Cc2[nH]n3c(=O)cc(C)nc3c2-c2ccccc2)cc1,0.26,-0.5
COc1cccc(C(=O)NNC(=O)C2CC(C)=C(C)CC2C(=O)O)c1 (stereo not given),0.99,-0.52
CC(c1ccccc1)n1c(Br)nc2c1c(=O)[nH]c(=O)n2C (stereo not given),1.1,-1.6
CCOC(=O)CNC(=O)c1ccc2c(c1)OCCO2,0.5,0.09
C/C(=N\NC(=O)CNC(=O)C1COc2ccccc2O1)c1ccc(Cl)cc1 (stereo not given),0.36,0.14
CN(CCC#N)C(=O)COC(=O)c1ccc(Cl)c(S(=O)(=O)N(C)c2ccccc2)c1,1.9,-0.05
CCCOC(=O)CCn1c(=S)oc2ccccc21,1.4,-1.5
COc1cc(Br)cc2cc(C(=O)OC3CCN(C)CC3)c(=O)oc12,0.18,1.1
Cc1nc2c(-c3ccc(Cl)cc3)c(C)[nH]n2c(=O)c1Cc1ccccc1,0.41,-1.8
Cc1ccc(-c2n[nH]c(=S)n2/N=C/c2sccc2C)cc1,0.61,-0.01
O=C(CN1CCCC1=O)NC1CCCc2c1cnn2-c1cc(F)cc(F)c1 (stereo not given),0.64,-0.06
CCCCCCCCCS(=O)(=O)N/N=C/c1cccc([N+](=O)[O-])c1,1.3,0.9
O=C(CNC(=S)NC(=O)c1ccc(F)cc1)c1ccccc1,0.71,1.1
CCOC(=O)c1ccc(-n2c(CN3CCC(O)CC3)nc3ccc([N+](=O)[O-])cc3c2=O)cc1,0.3,0.16
O=C(O)Cc1csc(NC(=O)c2ccco2)n1,0.05,3.9
CC(C)C1NC2(C(=O)c3ccccc3C2=O)C2C(=O)N(c3ccc(F)cc3)C(=O)C12 (stereo not given),4.5,-0.5
O=C(Nc1ccc(Cl)cc1)c1ccc2c(c1)S(=O)(=O)c1ccccc1C2=O,2.5,-1.9
COc1cccc(C2=NN(C(=O)c3ccco3)C(O)(C(F)(F)F)C2)c1 (stereo not given),0.02,0.55
COc1cccc2nc3cc(C)c(C)cc3nc12,2.7,-0.68
O=C(CNC(=O)c1ccc(Br)o1)NC1CCCCC1,0.12,-0.48
CS(=O)(=O)NCCNc1cc(Cl)ccc1[N+](=O)[O-],0.05,0.24
COCCN1C(=O)/C(=C2/C(=O)N(CC(=O)Nc3ccccc3Cl)c3ccccc32)SC1=S,1.2,-1.1
Oc1ccc(N=Nc2ccc3c(c2)OCCO3)c2ncccc12,12*,0.05*
Nc1cc(N)nc(SCC(=O)NNC(=O)c2ccc(Cl)cc2)n1,1,-0.08
Cc1nnc(SCCCn2c(N3CCN(c4ccccc4)CC3)nc3c2c(=O)[nH]c(=O)n3C)s1,0.87,-1.5
Cc1ccc(C(=O)NCCCNC(=O)c2ccc(C)nc2)cc1,0.39,-1.5
COc1ccc(Nc2c(-c3ccco3)nc3cccc(C)n23)cc1,0.76,-0.64
CC1(C)C2CCC1(CS(=O)(=O)NC1CCCC1)C(=O)C2 (stereo not given),0.81,0.21
CCN(CC)CCCn1c2c(c(SCC(=O)Nc3nc4ccccc4s3)nc1=O)CCC2,1.3,1.7
C/C(=N\NC(=O)c1nc2ccccn2c1C)c1cccc([N+](=O)[O-])c1,0.53,0.02
O=C1c2cccc(OCC(=O)N3CCCc4ccccc43)c2CCN1Cc1cccnc1,1.2,-1.4
CCNC(=S)N1CCCCC1CO (stereo not given),0.64,-0.22
CCC(=O)N1CC2(c3ccccc3)CN(C(=O)CC)CC(c3ccccc3)(C1)C2=O,0.55,0.69
CCCCn1c(-c2ccc(OC)cc2)nc2c(=O)n(C)c(=O)[nH]c21,0.41,0.21
COc1cccc(NC(=O)N2CCN(c3nc(-c4cccc(OC)c4)cs3)CC2)c1,4.2,-1.1
Cc1ccc2cc3c(N)[nH]nc3nc2c1,2.3,0.4

# Brought forward from above: 2 compounds, followed by the next part.
SMILES,KCNQ2 pot,KCNQ2 pot baseline
COc1cccc(NC(=O)N2CCN(c3nc(-c4cccc(OC)c4)cs3)CC2)c1,4.2,-1.1
Cc1ccc2cc3c(N)[nH]nc3nc2c1,2.3,0.4
O=C(N/N=C/c1cccc(Cl)c1Cl)Nc1ccccc1,0.15,-0.79
CCN1C(=O)C(CC(=O)Nc2ccc(Cl)cc2)N(NC(=O)c2ccncc2)C1=S (stereo not given),0.01,1.1
Cc1ccc(S(=O)(=O)N2CCCCC2)cc1NC(=O)CN1C(=O)CN(C)C1=O,0.49,-0.38
O=C(Nc1nnc(-c2ccco2)o1)C1CCCCC1,0.38,-2.9
CCCOc1ccc(/C=N/NC(=O)CN2CCCCC2)cc1,2.4,0.33
O=C(CCc1nc(-c2ccccc2)no1)NCc1ccco1,0.14,-0.97
COc1ccc(N(C(=O)COc2ccc(F)cc2)S(=O)(=O)c2ccc(C)cc2)cc1,1.7,-0.68
O=C(NCCN1CCc2ccccc2C1)C1CCN(S(=O)(=O)N2CCCCC2)CC1,0.68,-0.68
O=C(O)Cn1c(=S)sc2ccccc21,1.3,0.57
COc1ccc(-c2cn[nH]c2-c2ccc(OC)cc2O)cc1,0.57,1.8
O=C(NC1CCCCC1)NC1CCN(C(=S)NCc2ccco2)CC1,0.13,-0.1
Cc1cc(C)n(C(=O)CNc2ccc(C)c(C)c2)n1,1.1,-0.61
Cn1c(=S)n(C)c2ccccc21,0.8,2.1
O=c1cc(-c2ccccc2)nc2n1Cc1ccccc1-2,0.56,0.2
C=CCc1cccc(/C=N/NC(=O)C(C)Nc2cccc(C)c2)c1O (stereo not given),0.6,-0.93
CCN(CC)C(=O)COc1ccc2c(c1)C(=O)CC(C)(C)O2,1,-1.7
N/C(=N\OC(=O)Nc1ccc(Cl)cc1)c1ncc(C(F)(F)F)cc1Cl,1,-0.81
O=C(CSc1ncnc2scc(-c3ccccc3)c12)NCc1ccc2c(c1)OCO2,0.36,0.18
Cc1cc(C)cc(C(=O)NC(CC(N)=O)c2ccc(NC3CCCCCCCCCCC3)c([N+](=O)[O-])c2)c1 (stereo not given),0.01,0.21
O=Cc1c(Sc2ccccc2)nc2ccccn2c1=O,0.23,0.56

# Compounds listed so far with a CF3 group, in the order listed:
SMILES,KCNQ2 pot,KCNQ2 pot baseline
Cc1ccccc1NC(=O)Cn1nc(C(F)(F)F)cc1C1CC1,0.26,-0.01
COc1cccc(C2=NN(C(=O)c3ccco3)C(O)(C(F)(F)F)C2)c1 (stereo not given),0.02,0.55
N/C(=N\OC(=O)Nc1ccc(Cl)cc1)c1ncc(C(F)(F)F)cc1Cl,1,-0.81

# Next part.
SMILES,KCNQ2 pot,KCNQ2 pot baseline
CCOC(=O)Nc1ccc([N+](=O)[O-])cc1C,1.2,-0.42
CCOC(=O)C[C@H]1c2cc(F)ccc2S(=O)(=O)N1C1CCCCC1,0.76,0.07
CCn1nnc(-c2ccccc2NC(=O)C(F)(F)F)n1,0.41,-1.7
Cc1cccc(NC(=O)CSCC(=O)Nc2cc(Cl)ccc2N2CCOCC2)c1,2.9,-1.6
CCOc1ccc(/C=C/C(=O)OCC(=O)NCCc2ccc(OCC)c(OCC)c2)cc1OC,0.2,1
